# From PubChem BioAssay
# VDR inhibitor: inhibitors of human vitamin D receptor; P11473; Potency, µM, for inactives: max response, negative = inhibition, usual class: inhibitors; 400,000 compounds, 0.93% hits; VDR-SRC2-3 peptide fluorescence polarization, 2 h; AID 504847; active = well fitted inhibition curve with a large enough effect; inconclusive = small, poorly fitted or top-dose-only effect, or another doubt; inactive = no such curve, though single readings can be large or run the other way; note: series mostly up to about 120 µM
# Target sequence (P11473 whole entry, looked up): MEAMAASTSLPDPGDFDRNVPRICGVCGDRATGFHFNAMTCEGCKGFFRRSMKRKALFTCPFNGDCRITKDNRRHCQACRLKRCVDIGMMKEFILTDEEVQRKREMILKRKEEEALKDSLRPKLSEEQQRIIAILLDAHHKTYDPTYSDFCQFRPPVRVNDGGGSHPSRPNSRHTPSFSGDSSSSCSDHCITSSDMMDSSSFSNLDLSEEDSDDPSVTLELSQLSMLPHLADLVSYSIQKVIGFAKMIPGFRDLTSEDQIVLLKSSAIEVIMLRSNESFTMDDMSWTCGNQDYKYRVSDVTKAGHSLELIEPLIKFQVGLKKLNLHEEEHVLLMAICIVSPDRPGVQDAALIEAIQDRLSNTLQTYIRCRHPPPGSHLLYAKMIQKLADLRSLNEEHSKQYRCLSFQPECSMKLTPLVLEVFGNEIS
#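 Measured by FP: displacement of SRC2-3 coactivator peptide from VDR by library compounds, following a two-hour ambient incubation.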
# An asterisk follows results filed as active; ? = inconclusive; & = joins results of further samples; ! = not confirmed by another sample; [ ] = another dose, or the depositor's remark. % is set by controls: 0 for no effect and ±100 for the full control effect; potency is the fitted concentration of half-maximal effect. A portion of the library (hit frequency here may not be typical).
canonical_smiles,VDR inhibitor
COC(=O)C1CN(C(=O)COc2cccc(C)c2C)c2ccccc2O1 (centres undefined),-26%
O=C(Oc1nsnc1N1CCOCC1)N1CCOCC1,-5%
CC(=O)c1cc(CN2CCN(CC=C(C)C)C(CCO)C2)cs1 (centres undefined),-5%
COc1ccc2[nH]c(=O)c(CN(C)C(=O)C3CCCCC3)cc2c1,-1%
O=C(c1cccn(Cc2ccc(C(F)(F)F)cc2)c1=O)N1CCOCC1,-3%
Cc1c(F)cccc1NC(=O)CSCC(=O)Nc1ccccc1,-13%
Cc1ccsc1CN1CCN(c2ccccn2)CC1,26%
CC(C)N1C(=O)S/C(=C/c2ccc(Sc3nc4ccccc4[nH]3)o2)C1=O,0%
CCc1ccc(OC(=O)c2cncc(Br)c2)cc1,0%
CCCc1nc2ccccc2c(NC(=O)CN(CC)CC)c1CC,-1%
CN(C(=O)c1cccc(NC(=O)Cc2cccc([N+](=O)[O-])c2)c1)C1CC1,-2%
CCc1ccc(S(=O)(=O)Nc2ccc3c(c2)n(C)c(=O)c(=O)n3C)cc1,-3%
CC(Cl)C(=O)c1c(N)n(C)c(=O)n(C)c1=O (centres undefined),-7%
Cc1ccc2c(c1)N(C(=O)Nc1cccc3c1CCCC3)CCO2,16%
O=C(O)CCc1[nH]c2ccccc2c1Sc1ccccc1,-12%
Cc1cccc(NC(=O)Nc2c(C)n(C)n(-c3ccccc3)c2=O)c1,?
CC(C)c1ccc(NS(=O)(=O)c2ccc3[nH]cc(C(=O)N4CCC(C(N)=O)CC4)c(=O)c3c2)cc1,-4%
Cc1ccc(S(=O)(=O)NCc2ccccc2)cc1C(=O)N(C)CC(=O)Nc1c(Cl)cccc1Cl,-17%
COc1cccc(C2=NOC(C(=O)Nc3c(C)n(C)n(-c4ccccc4)c3=O)C2)c1 (centres undefined),-4%
CC(=O)NC1(C(=O)O)CCCC1,3%
Cc1noc(C)c1COC(=O)CCCc1c[nH]c2ccccc12,4%
O=C1c2ccc(-c3ccc4c(c3)C(=O)N(CCCO)C4=O)cc2C(=O)N1CCCO,-4%
Cc1ccc(NC(=O)c2cncc(Br)c2)c(O)c1,-8%
CN(C)c1ccc(CN(C(=O)/C=C/c2ccco2)C2CCS(=O)(=O)C2)cc1 (centres undefined),0%
Oc1ccc(C=Nc2ccccc2-c2nc3ccccc3[nH]2)cc1,10%
CCOc1ccc(NC(=O)Cn2c(=O)oc3cc(S(=O)(=O)N4CCC(C)CC4)ccc32)cc1,-8%
CCn1c(SCC(=O)Nc2cc(C)on2)nnc1-c1cccc(C)c1,-2%
O=C(c1ccccc1)N1CCN(C2CCCCC2)CC1,-2%
O=C1COc2ccc(C(=O)COC(=O)c3ccccc3[N+](=O)[O-])cc2N1,-10%
CCCS(=O)(=O)Nc1c(C(=O)O)[nH]c2ccc(OC)cc12,5%
Cc1ccc(C)c2[nH]c(=O)c(CCNC(=O)CC(C)(C)C)cc12,-10%
O=c1oc2ccccc2c(N2CCN(c3ccc(F)cc3)CC2)c1CN1CCCC1,-4%
Cc1cc(C)nc(N2CCC(C(=O)NCCc3ccccc3)CC2)n1,5%
CC(C(=O)NC(N)=O)N1C(=O)NC(c2ccccc2)(c2ccccc2)C1=O (centres undefined),-1%
Cc1ccc(S(=O)(=O)NCc2ccccc2)cc1,-7%&-2%
CCN(Cc1ccccc1)C(=O)c1cccc(S(=O)(=O)N2CCN(c3ccccc3)CC2)c1,-5%
O=C(Cn1c2[n+](c3ccccc31)CC(O)CS2)c1ccccc1 (centres undefined),6%
c1ccc(-c2ccccc2-n2cnnn2)cc1,-8%
O=C(COC(=O)c1c(Cl)cccc1Cl)Nc1cccc(S(=O)(=O)NC2=NCCCCC2)c1,4%
Nc1c(C(=O)c2ccccc2)oc2ccc([N+](=O)[O-])cc12,-3%
O=[N+]([O-])c1cccc(N/N=C/c2cccc(O)c2O)c1,-6%
Cc1ccc(-c2nnn(CC(=O)N3CCN(c4nc5ccccc5s4)CC3)n2)cc1,-4%
CCCCOC(=O)Nc1cc(C(=O)OC)ccc1C(=O)OC,-8%
COc1cccc(OCC(=O)NC2CCS(=O)(=O)C2)c1 (centres undefined),-5%
CCC(C)[C@H](NC(=O)NCc1ccc(F)cc1)C(=O)O (some centres undefined),11%
S=P(N1CC1)(N1CC1)N1CC1,89µM*!
Cn1c(=O)c(C(=O)NCCc2ccccc2)c(O)c2ccccc21,0%
NC(=O)C1(C(N)=O)OC1c1ccccc1 (centres undefined),25%
COc1cccc(N2CC(C(=O)Nc3c(C)cccc3C)CC2=O)c1 (centres undefined),-25%
COc1ccc(-c2cccc(CCC(=O)N3CCN(c4cc(C)ccc4C)CC3)c2)cc1,4%
O=C1N(c2ccc(Cl)cc2)C(c2ccccc2)N2CCCN12 (centres undefined),?
COC(=O)c1cc(-c2ccc(OC)cc2)n[nH]1,0%
COc1ccccc1C(=O)NNC1=NS(=O)(=O)c2ccccc21,-4%
O=C(CN1C(=O)C2(SCC(=O)N2c2cccc(Cl)c2)c2ccccc21)NCCc1ccccc1 (centres undefined),0%
COC(=O)[C@@]1(C)CCC[C@@]2(C)c3ccc(O)c(C(C)C)c3CCC21 (some centres undefined),1%
COc1ccc(CC(=O)OCC(=O)Nc2ccc3c(c2)OCO3)cc1OC,13%
N#CCCN(C(=O)CN1c2cccc3cccc(c23)S1(=O)=O)c1ccccc1,-19%
Cc1ccc(-c2nnc(SCC(=O)NCc3ccccc3)o2)cc1,1%
O=C(CSc1nc2c([nH]c3ccccc32)c(=O)n1-c1ccc(F)cc1)Nc1ccc2c(c1)OCCO2,-16%
CCOc1ccc2nc(N(CCN(C)C)C(=O)c3cc4ccccc4cc3OC)sc2c1,-12%

# Carrying on.
canonical_smiles,VDR inhibitor
COc1ccc(-n2c(C)c(C(C)=O)c3cc(O)ccc32)cc1,-5%
O=C1CC(Sc2ccc(Cl)cc2)C(=O)N1Cc1ccncc1 (centres undefined),-10%
CCN1CCCC1CNC(=O)Cn1cnc2ccc(S(=O)(=O)N3CCC(C)CC3)cc2c1=O (centres undefined),-9%
Cc1cc(C(=O)OCC(=O)NNC(=O)c2cccs2)ccc1[N+](=O)[O-],4%
CCCc1nc2c(s1)CCc1onc(-c3ccc(Br)cc3)c1-2,?
Cc1nn(C)c(C)c1S(=O)(=O)N(CC(=O)NCCCN1CCC(C)CC1)c1ccc(C(C)C)cc1,33%[activator]
CCCCC1CCCC12NC(=O)NC2=O (centres undefined),4%
Cc1cc(C)c(NC(=O)CNC(=O)COC(=O)C2=COCCO2)c(C)c1,-10%
COc1ccc(NC(=O)c2ccco2)cc1NC(=O)c1ccccc1,-12%
Cn1c(=O)c(NCCc2ccccc2)c2c3c(cccc31)C(=O)c1ccccc1-2,?
COc1ccc(NC(=O)Cn2c(=O)n(CCC(C)C)c(=O)c3cccnc32)cc1Cl,11%
NC(=O)c1ccc(NC(=O)c2ccc(CN3CCOCC3)cc2)cc1,7%

# Exported with each value named: 2 of the compounds above
> Oc1ccc(C=Nc2ccccc2-c2nc3ccccc3[nH]2)cc1
  VDR inhibitor: 10%

> CCOc1ccc(NC(=O)Cn2c(=O)oc3cc(S(=O)(=O)N4CCC(C)CC4)ccc32)cc1
  VDR inhibitor: -8%

# The list continues.
canonical_smiles,VDR inhibitor
c1csc(Cc2nc3ccccc3[nH]2)c1,12%
CCOc1ccc(-n2c(SCC(=O)N3CCC(C)CC3)nc3c([nH]c4ccccc43)c2=O)cc1,1%
COc1ccc(Cl)cc1S(=O)(=O)N1CCN(C(=O)c2cc(-c3ccc(Br)cc3)n[nH]2)CC1,6%
COc1ccc(C)cc1NC(=O)c1cc2c(=O)n(Cc3cccnc3)ccc2nc1C,10%
C=CCN=C1S/C(=C\c2ccc(N(C)C)cc2)C(=O)N1CC=C,13%
Cn1c(/C=C/c2ccccc2)nc2ccccc21,-8%
CO/N=C\CC(=O)Nc1ccc(Cl)cc1Cl,?
Cc1ccccc1CSCCNC(=O)CSCc1ccc([N+](=O)[O-])cc1,-23%
C(=N\c1nccs1)/c1c[nH]c2ccccc12,9%
N#CC(C#N)=Cc1ccc(NC(=O)c2ccc(Br)cc2)cc1,?
CC(OC(=O)c1nn(C)c(=O)c2ccccc12)C(=O)NC1CCCCC1C (centres undefined),-6%
COc1ccc(C(=O)/C=C2/C(=O)Nc3ccccc32)cc1,?
COC(=O)C1=C(N)OC2=C(C(=O)CC(C)(C)C2)C1c1ccoc1 (centres undefined),-21%
O=C1COc2ccc(C(=O)CSc3ccccc3C(=O)O)cc2N1,8%
CCc1ccccc1NC(=O)CNC(=O)CCc1nc2sc3c(c2c(=O)[nH]1)CCCC3,-1%
Cc1ccc(NC(=S)NC(NC(=O)c2ccco2)C(Cl)(Cl)Cl)cc1 (centres undefined),-11%
CCCn1nnnc1NCc1ccc(OC)cc1,-12%
O=C(CCNS(=O)(=O)c1ccccc1C(F)(F)F)N1CCN(S(=O)(=O)c2cccc(F)c2)CC1,11%
COc1cc(C(=O)OC(C)c2ccc(F)cc2)ccc1OCC(=O)N1CCOCC1 (centres undefined),5%
CCOc1ccccc1C(=O)N(Cc1ccco1)Cc1ccco1,13%
CCCN(CC(=O)Nc1ccccc1C)C(=O)C1CCN(c2ncnc3sc(C)c(C)c23)CC1,-7%
NS(=O)(=O)c1ccc(S(=O)(=O)N2CCN(c3nc(-c4cccs4)nc4ccccc34)CC2)cc1,?
COc1ccc(-n2c(O)c(C=NCC(c3ccco3)N3CCCC3)c3ccccc3c2=O)cc1OC (centres undefined),23%
CS(=O)(=O)c1ccc(C(=O)NCCN2C(=O)S/C(=C\c3cccnc3)C2=O)cc1[N+](=O)[O-],-7%

# Reprinted from the results shown for reference:
canonical_smiles,VDR inhibitor
CCc1ccccc1NC(=O)CNC(=O)CCc1nc2sc3c(c2c(=O)[nH]1)CCCC3,-1%
Cc1ccc(NC(=S)NC(NC(=O)c2ccco2)C(Cl)(Cl)Cl)cc1 (centres undefined),-11%
CCCn1nnnc1NCc1ccc(OC)cc1,-12%
O=C(CCNS(=O)(=O)c1ccccc1C(F)(F)F)N1CCN(S(=O)(=O)c2cccc(F)c2)CC1,11%
COc1cc(C(=O)OC(C)c2ccc(F)cc2)ccc1OCC(=O)N1CCOCC1 (centres undefined),5%

# The list goes on.
canonical_smiles,VDR inhibitor
Cc1ccc(C)c(NC(=S)NC(NC(=O)N(C)C)C(Cl)(Cl)Cl)c1 (centres undefined),0%
CCCCN(C(=O)C1=NN(c2ccccc2)C(=O)CC1)c1c(N)n(CCC)c(=O)[nH]c1=O,-19%
Cn1c(=O)oc2cc(S(=O)(=O)Nc3ccccc3)ccc21,-12%
C/C(CCC(C)C)=N\NC(=O)COc1ccccc1-c1ccccc1,5%
c1ccc(OCCCCN2CCCCC2)cc1,2%
Cc1cccc(-n2c(SC(C)C(=O)O)nc3sc4c(c3c2=O)CCCC4)c1 (centres undefined),-12%
CCc1cc2c(=O)c(-c3cscn3)coc2c(CN(C)C)c1O,2%
C=CCN(c1ccc(C(=O)NCCCn2ccnc2)cc1)S(C)(=O)=O,-13%
Cc1cc([N+](=O)[O-])cc2c1NC(=O)C2(O)N1CCOCC1 (centres undefined),-2%
CCOc1ccccc1CN1CCN(CCCc2ccccc2)CC1CCO (centres undefined),-20%
COc1ccc(C(=O)NCCOc2cccc(OC)c2)cc1,-5%
COc1ccc(CC(=O)N2N=C(C)CC2(O)c2cccnc2)cc1OC (centres undefined),-7%
COc1ccc2nc(NC(=O)c3nc(SC(C)C)ncc3Cl)sc2c1,0%
CC(C)C(=O)N1CCC(n2nccc2NC(=O)CCc2ccccc2)CC1,?
CC1(C)CC(=O)C2=C(C1)N(c1cccc(O)c1)C1=C(C2)C(=O)CC(C)(C)C1,-6%
Cc1ccc2c(c1)N(CC(=O)N1CCCCC1C)C(=O)CO2 (centres undefined),-9%
O=C1CCC(=O)N1c1ccc(NCCc2cccc(F)c2)c([N+](=O)[O-])c1,0%
CN(C1=C(N2CCOCC2)C(=O)c2ccccc2C1=O)c1ccccc1,-2%
Nc1[nH]nc2ncc3cc4ccccc4nc3c12,-1%
CSCCC(NC(=O)c1ccccc1Cl)C(=O)N1CCN(C(c2ccccc2)c2ccccc2)CC1 (centres undefined),-4%
COCCN1Cc2cccc(C(=O)Nc3cccc(-c4nc5ccccc5[nH]4)c3)c2C1=O,25%
CCc1sc(C(=O)N2CCc3ccccc32)cc1C,-12%
COc1ccccc1NC(=O)COC(=O)COc1cccc2c1OC(C)(C)C2,11%
C#CCOCCOCCOCCNc1nc(N2CCN(C(=O)[C@H]([C@@H](C)CC)n3cc([C@@H](N)CO)nn3)CC2)nc(N2CCN(C(=O)[C@H](Cc3ccc(O)cc3)n3cc([C@@H](N)CC(C)C)nn3)CC2)n1,-5%
CCOC(=O)N1CCN(C(=O)c2cc(OCC)c(OCC)c(OCC)c2)CC1,-11%
Cc1nn(-c2ccccc2)c(NC(=O)c2cccs2)c(-c2ccccc2Cl)c1=O,-11%
Cn1cnc2cc(NCc3ccc(Cl)cc3)ccc21,-7%
CNc1nc2c(C)cccn2c(=O)c1C=NCc1ccccc1,4%
COc1cccc(OC)c1C(=O)Nc1ccc(S(=O)(=O)Nc2ncccn2)cc1,-6%
CCOc1cc(CNC(=O)NC2COc3ccc(OC)cc3C2)cc(OCC)c1OCC (centres undefined),1%
O=C(COc1ccccc1)Nc1nnc(-c2ccc(Cl)cc2)o1,-5%
COC(=O)CSc1ccc(S(=O)(=O)N2CCCCCC2)cc1[N+](=O)[O-],-9%
Nc1cc(C(F)(F)F)ccc1N1CCOCC1,-25%
CN(C)c1ncnc2sc(-c3ccccc3)cc12,-6%
